Compound activity deposited in PubChem by National Center for Advancing Translational Sciences (NCATS).
miR-21 reporter – qHTS Assay for Modulators of miRNAs and/orActivators of miR-21; HeLa miR-21 FLuc reporter, luciferase, 48 h; Potency, µM (highest dose often 38.3 µM), for inactives: at the top dose reporter change, positive = more light; 340,000 tested, under 10 active; AID 2288, 2010; active = well fitted rising curve with a large enough effect; inconclusive = small, poorly fitted or top-dose-only effect; inactive = no such curve, though single readings can be large or run the other way;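 also: % of control where 0% means no effect; miR-21 action dims this reporter so a rising signal means less miR-21 action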
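Luminescence from a firefly luciferase reporter carrying a miR-21 binding site downstream, stably expressed under a CMV promoter in HeLa cells that make miR-21 endogenously, reports miRNA modulation after 48 h compound exposure up to approximately 40uM final.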
Rango-impB inh – qHTS Assay for Inhibitors of Rango (Ran-regulated importin-beta cargo) - Importin beta complex formation; Importin subunit beta-1 (Homo sapiens), Q14974; Rango CFP/YFP FRET sensor + importin beta, 45 min; Potency, µM (series often up to 92.2 µM), inactives show at the top dose inhibition of complex formation; 340,000 compounds, 0.031% hits; AID 540263, 2011; active = rising FRET ratio curve, often small or poorly fitted; inconclusive = mostly compound fluorescence or quenching in the first reads; inactive = flat curves in all reads;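 also: potency is read from the fitted curve at half-maximal effect; 0% = DMSO wells and 100% = buffer wells lacking importin beta; nearly all actives have a fitted effect of over 15% in size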
Target sequence (Q14974 whole entry, looked up): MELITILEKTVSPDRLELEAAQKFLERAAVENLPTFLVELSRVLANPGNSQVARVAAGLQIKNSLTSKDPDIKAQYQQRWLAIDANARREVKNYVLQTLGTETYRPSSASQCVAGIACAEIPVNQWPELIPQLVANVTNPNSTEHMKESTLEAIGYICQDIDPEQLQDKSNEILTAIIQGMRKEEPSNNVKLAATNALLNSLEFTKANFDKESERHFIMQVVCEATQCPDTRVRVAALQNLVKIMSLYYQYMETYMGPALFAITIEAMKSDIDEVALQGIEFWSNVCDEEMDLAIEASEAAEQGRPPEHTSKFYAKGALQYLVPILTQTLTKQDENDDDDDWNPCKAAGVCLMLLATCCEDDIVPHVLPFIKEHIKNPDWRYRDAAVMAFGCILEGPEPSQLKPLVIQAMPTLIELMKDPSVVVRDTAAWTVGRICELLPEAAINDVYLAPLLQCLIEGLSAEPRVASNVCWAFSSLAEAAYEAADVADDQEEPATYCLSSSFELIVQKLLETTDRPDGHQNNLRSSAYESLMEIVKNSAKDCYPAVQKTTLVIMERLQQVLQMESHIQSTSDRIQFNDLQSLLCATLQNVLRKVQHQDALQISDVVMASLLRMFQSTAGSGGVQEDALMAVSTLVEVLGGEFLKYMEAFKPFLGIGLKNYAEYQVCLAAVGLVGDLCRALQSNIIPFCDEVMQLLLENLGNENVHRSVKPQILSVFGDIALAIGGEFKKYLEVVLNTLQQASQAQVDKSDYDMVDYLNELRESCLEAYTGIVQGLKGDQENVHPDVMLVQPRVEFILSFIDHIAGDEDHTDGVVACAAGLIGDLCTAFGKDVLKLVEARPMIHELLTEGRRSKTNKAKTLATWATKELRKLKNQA
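FRET biosensor Rango (snurportin 1 IBB between N-terminal EYFP and C-terminal Cerulean), 50 nM in PBS/1 mM DTT/0.02% Tween-20/0.1% BSA, preincubated 5 min RT with compound; 0.125 microM importin beta added, 45 min RT, CFP/YFP FRET ratio read.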
Rango dissoc inh – qHTS Assay for Inhibitors of RanGTP induced Rango (Ran-regulated importin-beta cargo) - Importin beta complex dissociation. Snurportin-1 (Homo sapiens) + GTP-binding nuclear protein Ran (Homo sapiens) + Importin …. Biochemical FRET Rango-importin beta, RanGTP-induced dissociation. Potency, µM (titrated, usually from 46.1 µM), without a hit: at the highest dose activity change, negative = inhibition. 340,000 compounds, 0.071% hits. AID 540253, 2011; active means falling FRET ratio curve, often poorly fitted, with flat reads before Ran was added; inconclusive means other falling curves, or compound fluorescence or quenching; inactive means flat or rising ratio curve;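 also: potency is read from the fitted curve at half-maximal effect; % of control where 0% means no effect; nearly all actives have a fitted effect of over 45% in size; -100% = wells without RanGTP and RCC1; the record marks most hits as doubtful in a second field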
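Rango FRET biosensor (snurportin-1 IBB flanked by N-terminal EYFP and C-terminal CFP10) at 0.1 uM, with 0.25 uM importin beta in PBS, 1mM DTT, 0.02% Tween-20, 0.1% BSA. 0.6 uM Ran, 2mM GTP and 0.2 uM RCC1 were then added for 45 min at room temperature. Inhibition read as loss of FRET rise.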
GLA inh pH 4.5 – qHTS Assay for Inhibitors of Human alpha-Galactosidase at pH 4.5; Alpha-galactosidase A (Homo sapiens), P06280; purified enzyme, 4-MU-alpha-Gal fluorescence, pH 4.5; activity change, negative = inhibition, % at 105 µM; 230,000 tested, under 10 active; inconclusive = small, poorly fitted or top-dose-only inhibition, or a rising curve; inactive = flat fitted curve, though single readings scatter; no compound was filed as active;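 also: 0% = full activity with enzyme and -100% = basal without enzyme; dose as in the result columns while the protocol names 77 µM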
Numbers without * were called inactive; u = inconclusive; x = no result given; & = joins results of further samples. Only part of the results is shown. The share of hits here may be higher or lower than overall.

SMILES	miR-21 reporter	Rango-impB inh	Rango dissoc inh	GLA inh pH 4.5
COC(=O)[C@@H]1C[C@@]2(O)[C@@H](O)[C@@H](O)[C@@H](O)C[C@H]2N1Cc1ccc(-c2ccccc2)cc1	-11%	-0.4%	2%	2&-3
O=C(c1cc2cc(Br)ccc2oc1=O)N1CCN(c2ccccn2)CC1	-1%	-0.2%	1%	7
O=C(COC(=O)c1ccc([N+](=O)[O-])s1)Nc1ccc(Cl)cn1	1%	3.3%	u	-1
COc1ccccc1Nc1nnc(SCC(=O)Nc2cc(C)on2)s1	-10%	-0.5%	-5%	6
NS(=O)(=O)c1ccc(N=Nc2c(O)c(C(=O)O)cc3ccccc23)cc1	-2%	-5.0%	-1%	-13
Cc1ccc(C(=O)C(C)OC(=O)CCN2C(=O)C3C4C=CC(C5CC45)C3C2=O)cc1 (stereo not drawn)	-1%	-2.2%	7%	x
O=C(CCNC(=O)c1ccccc1)NNC(=O)COc1ccccc1Cl	x	1.9%	-2%	x
Nc1nnc(CCc2ccccc2)s1	-6%	-1.2%	5%	-5
O=C(NC1CC1)C1CCN(C(=O)c2ccccc2Cl)CC1	-3%	0.2%	-4%	x
Cc1ccccc1OCCC(=O)OCC(=O)Nc1ccc2[nH]c(=O)[nH]c2c1	x	-0.5%	-10%	x
Cc1nc(-c2ccc(S(=O)(=O)Nc3cccc(S(N)(=O)=O)c3)s2)cs1	-23%	-1.8%	-8%	-11
CCN(CC)c1ccc(NC(=O)CCNC(=O)c2ccco2)cc1	-7%	4.8%	-11%	0
CCC(C(=O)Nc1cccnc1Cl)c1ccccc1 (stereo not drawn)	-7%	0.1%	8%	x
C=CCN1C(=O)CSc2ccc(C(=O)NC3CCCCC3)cc21	-6%	0.2%	-7%	x
O=[N+]([O-])c1ccc2c(c1)ncn2-c1ccccc1	-42%	2.4%	3%	7
CS(=O)(=O)N(CC(=O)NCc1ccccc1Cl)c1cccc([N+](=O)[O-])c1	4%	0.2%	20%	5
CC(=NCCc1ccccc1)C1=C(O)CSC1=O	-19%	-2.7%	4%	10
Cc1cnc(C(=O)OCC(=O)N2c3ccccc3NC(=O)C2(C)C)cn1	-1%	6.2%	10%	3
COc1ccc(CC(=O)N2CCCC2)c(OC)c1	0%	4.2%	8%	x
COc1cccc(OC)c1C(=O)N1CCN(c2c(Cc3ccccc3)c(C)nc3ncnn23)CC1	-7%	-2.0%	1%	-11
Cc1ccc(-c2cc(C(=O)N/N=C/c3c(C)nn(C)c3C)c3ccccc3n2)c(C)c1	-4%	0.7%	30%	-22
CCc1cc(C(=O)NNC(=S)Nc2ccccc2C)cs1	-67%	-0.1%	4%	-9
CSCC[C@H](NC(=O)Cc1c(C)c2c(cc(C)c3c(C)coc32)oc1=O)C(=O)O	-3%	-0.8%	-18%	x
Cc1ccc(S(=O)(=O)N2CCN(c3nn(C)c(=O)n(C)c3=O)CC2)cc1C	x	1.5%	31%	x
O=C(NC1CCN(Cc2ccccc2)CC1)c1cccc(S(=O)(=O)Nc2ccc(SC(F)F)cc2)c1	x	-1.7%	15%	x
c1ccc2c(c1)nc(NCc1ccc3c(c1)OCO3)n2CCN1CCOCC1	-9%	0.8%	19%	-24
CC1CCCC(NC(=O)COC(=O)CCc2ccccc2)C1C (stereo not drawn)	0%	u	-12%	3
CCNC(=O)COC(=O)COc1ccc(Cl)cc1C	-6%	0.1%	0%	2
COc1cccc(Nc2nc3ccccc3nc2NS(=O)(=O)c2cccs2)c1	-2%	-1.0%	-11%	0
Cn1nc(C(F)(F)F)c(C(=O)Nc2ccc(F)cc2)c1Cl	-1%	0.2%	2%	-9
CCC(C(=O)NCCN1CCOCC1)n1c2ccccc2c2nc(=O)cc(C)n21 (stereo not drawn)	1%	0.4%	3%	x
COc1cc2c(cc1OC)C(c1cccc(Br)c1)NC(=O)C2 (stereo not drawn)	-41%	-4.6%	-17%	x
COc1ccc(S(=O)(=O)N2CCc3ccccc32)cc1C(=O)N(CC(C)C)C1CCS(=O)(=O)C1 (stereo not drawn)	x	0.1%	-3%	x
O=C(c1ccc(-c2ccccc2)cc1)C1CCCN(C(=O)Cn2cncn2)C1 (stereo not drawn)	3%	-1.0%	10%	7
CC1=NN(C(N)=S)C(=O)C1N=Nc1c(C)n(C)n(-c2ccccc2)c1=O (stereo not drawn)	x	0.9%	6%	x
O=C(Nc1ccccn1)c1cccc(S(=O)(=O)N2CCc3ccccc3C2)c1	x	-0.6%	21%	x
COc1cc(/C=C2\SC(=S)N(CCC(=O)Nc3ccccc3O)C2=O)cc(OC)c1OC	4%	0.6%	-5%	x
COc1cc(C(=O)OCC(=O)Nc2ccc(C(C)=O)cc2)ccc1OCC(=O)N1CCOCC1	-3%	-2.7%	-10%	-2
CCOC(=O)c1c(C)oc2ccc(OCC(N)=O)cc12	-17%	0.9%	-7%	6
CCOc1ncccc1C(=O)Nc1c(C)n(C)n(-c2ccccc2)c1=O	-3%	4.9%	-1%	x

Single values from above.
COc1cc(C(=O)OCC(=O)Nc2ccc(C(C)=O)cc2)ccc1OCC(=O)N1CCOCC1 – Rango-impB inh: -2.7%
Cc1nc(-c2ccc(S(=O)(=O)Nc3cccc(S(N)(=O)=O)c3)s2)cs1 – Rango-impB inh: -1.8%

(more compounds)
SMILES	miR-21 reporter	Rango-impB inh	Rango dissoc inh	GLA inh pH 4.5
O=C(COc1cc2oc(=O)c3c(c2cc1Cl)CCC3)N1C[C@H]2C[C@@H](C1)c1cccc(=O)n1C2	0%	-0.9%	0%	x
OCCNc1nc(Cl)nc(NCc2ccco2)n1	1%	-3.6%	-14%	4
COc1cc(Br)c(/C=C/c2ccc3cccc(O)c3n2)cc1OC	-9%	-0.9%	-2%	x
O=S(=O)(Cc1ccccc1)N1CCN(Cc2c(F)cccc2Cl)CC1	x	-1.0%	-12%	x
Cc1cc2c(cc1C)CSC(c1ccccc1O)SC2	6%	0.2%	0%	-1
O=[N+]([O-])c1cccc2cn[nH]c12	-27%	0.8%	1%	1&-5&-3&-14
Cc1cc(/C=N/NC(=O)c2cccc(N(C)C)c2)c(C)n1-c1cc(C(=O)O)cc(C(=O)O)c1	-28%	0.2%	1%	6
COc1ccc(CN2CCNC(=O)C2CC(=O)N(C)Cc2ccon2)cc1OC (stereo not drawn)	-3%	-0.7%	5%	-1
CCCCc1ccc(NC(=O)c2cnccn2)cc1	-40%	0.4%	-1%	-27
CCOC(=O)N1CCN(C(=O)C2CCCN(c3ncnc4c3nc3n4CCCCC3)C2)CC1 (stereo not drawn)	-1%	3.1%	-4%	x
COc1ccc(NC(=O)CCC(=O)Nc2ccc3nc(N4CCOCC4)cc(C)c3c2)c(OC)c1	-12%	2.4%	14%	x
O=C(OCCN1C(=O)c2ccccc2C1=O)c1ccccc1	-7%	1.5%	22%	0
C=CCn1ncc(OC)c(Cl)c1=O	0%	-0.2%	-7%	-2
O=C(O)c1ccc(S(=O)(=O)NCC2CCCCC2)cc1	-5%	-3.7%	-10%	x
COc1ccc2[nH]c3c(c2c1)CN(C)CC3	-8%	-2.3%	12%	2
NS(=O)(=O)c1ccc(CCNC(=O)c2ccc3c(=O)n4c(nc3c2)CCCCC4)cc1	x	2.5%	14%	x
Cc1nn(CC(=O)N2CCN(C)CC2)c(=O)c2c1sc1ccccc12	-2%	-0.1%	14%	x
Cc1ccc2c(CC(=O)NNC(=O)c3ccccc3)coc2c1	-15%	-0.8%	-6%	4
CCc1ccccc1NC(=O)CSC1=C(C#N)C(c2ccc(O)c(OC)c2)C2=C(CCCC2=O)N1 (stereo not drawn)	19%	-5.0%	-13%	-3
Cc1cc(OC(C)C(=O)N(Cc2ccco2)C2CCS(=O)(=O)C2)ccc1Cl (stereo not drawn)	-1%	2.2%	-13%	x
C=CCCC(=O)N(C)CCO	x	9.9%	-6%	x
COCCn1nnnc1C(c1cccs1)N1CCN2CCCC2C1 (stereo not drawn)	-30%	0.9%	0%	-3
Cc1[nH]c(=O)[nH]c(=O)c1NS(=O)(=O)c1ccc2c(c1)CCCC2	-5%	-0.2%	13%	2
Cc1ccc(NS(=O)(=O)c2cc(C(=O)NCc3ccncc3)ccc2C)cc1	-4%	4.1%	-1%	x
CC(=O)Nc1ccc(S(=O)(=O)Nc2ncccn2)cc1	1%	-2.1%	18%	3
COc1ccc(C2c3cc4c(cc3OC(N3CCOCC3)C2C)OCO4)c(OC)c1 (stereo not drawn)	x	0.8%	12%	x
COC(=O)CN1C(=O)[C@H]2[C@@H](c3ccc(C)o3)N3C(=O)CN(Cc4ccccn4)C(=O)[C@@]3(C)[C@H]2C1=O	0%	-0.2%	-12%	x
COc1cc(CNCCNCC(C)O)ccc1OCc1ccc(Cl)nc1 (stereo not drawn)	-19%	-3.1%	5%	-2
CC1CCN(S(=O)(=O)c2cn(CC(=O)N3CCN(c4cccc(C(F)(F)F)c4)CC3)cn2)CC1	16%	-1.1%	-5%	x
CCn1nc(C(=O)Nc2nc3ccc(C)cc3s2)c2ccccc2c1=O	1%	-2.0%	-11%	1
CN(CCO)c1nc(N)c2c(N)nc3c(c2c1C#N)CC(=O)N3Cc1cccs1	1%	-5.3%	-24%	9
COc1ccccc1NC(=S)NC(=O)c1ccc(Cn2cc(Br)cn2)cc1	-4%	-0.8%	9%	-4
COc1ccc(C(=O)NC2CC2)cc1OC1CCN(Cc2cc(C)cc(C)c2)CC1	4%	-0.2%	-6%	x
CCN(CC)C(=O)C1CCCN(C/C=C/c2ccccc2)C1 (stereo not drawn)	-3%	-3.0%	14%	-14
COCCN1CC(O)=C(c2nc3ccccc3c(=O)[nH]2)C1=N	-3%	-0.1%	-1%	-11
CCC1(c2ccc(F)cc2)NC(=O)NC1=O (stereo not drawn)	-5%	5.3%	19%	x
COc1cc(-c2noc(C)c2C#CC2(O)CCCCC2)cc(OC)c1OC	16%	-0.7%	1%	x
CC(=O)c1ccc(OCCn2cnc3ccccc32)cc1	-25%	0.1%	1%	12
CN1CCN(NS(=O)(=O)c2ccc(Cl)cc2)CC1	1%	-4.0%	-11%	x
O=c1ncn(C2CCCCC2)c(=O)[nH]1	x	2.8%	-14%	x
COC(=O)C1=CN(c2ccc(F)cc2)C=C(C(=O)OC)C1c1ccc(O)cc1	-25%	u	-18%	x
CCN(CC(=O)Nc1cc(C)nn1-c1nc(C)cc(C)n1)Cc1ccccc1	27%	-2.3%	-7%	-1
Cc1cccc(C(C)C)c1NC(=O)c1cccnc1	0%	-4.3%	-11%	-2
Oc1cccc2c(-c3nn[nH]n3)ccnc12	x	u	-16%	x
COc1ccc(-c2cn3cccnc3n2)cc1NC(=O)c1cc(OC)c(OC)c(OC)c1	9%	1.6%	6%	6
O=C(NCc1nc(-c2ccccc2)no1)c1cccs1	-12%	-1.5%	-4%	-8
COc1cc(OC)c(C2N(c3ccccn3)C(=O)C3CCCN32)cc1OC (stereo not drawn)	9%	-0.2%	3%	1
Cc1cccc(OCC(=O)OCC(=O)Nc2ccc(Cl)cn2)c1	x	-4.8%	4%	x
CCOc1c([N+](=O)[O-])cc2c(C)c(C(=O)N3CCN(C)CC3)oc2c1OCC	-9%	u	1%	x
Cc1cc(Cl)ccc1OCC(=O)OCC(=O)Nc1cccnc1Cl	x	-2.1%	0%	x

Compound profiles, as listed above.
COC(=O)C1=CN(c2ccc(F)cc2)C=C(C(=O)OC)C1c1ccc(O)cc1 is listed with miR-21 reporter = -25%; Rango-impB inh = u; Rango dissoc inh = -18%; GLA inh pH 4.5 = x
O=C(NCc1nc(-c2ccccc2)no1)c1cccs1 is listed with miR-21 reporter = -12%; Rango-impB inh = -1.5%; Rango dissoc inh = -4%; GLA inh pH 4.5 = -8
